Screening data as filed in PubChem BioAssay.
Platelet DG rel – inhibitors of platelet dense granule secretion, primary screen, cell-based, MLPCN, human platelets. AID 1663, 2009. inhibition, %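 (compounds screened at 7.5 µM in platelet-rich plasma)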. human platelet-rich plasma, SFLLRN dense granule ATP release, luminescence. 300,000 compounds, 0.22% hits;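 active = mean replicate score, as percent of positive control, at or above 50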
HSP90 inh – HSP90 inhibitors, primary screen, cell lysate, luminescence; Rabbit reticulocyte lysate, luciferase refolding luminescence, 3 h; inhibition, % at 5.6 µM; 290,000 compounds, 0.91% hits; AID 1789, 2009;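 active = inhibition above the screen-wide mean plus 3 SD, computed separately per campaign, cut at about 16% in these data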;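 note: 0% = DMSO wells and 100% = 60 µM geldanamycin wells; inhibitors lower the luminescence because luciferase stays unfolded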
KLF5 inh – KLF5 expression inhibitors, primary screen, DLD-1 cells, luminescence | DLD-1 KLF5 promoter-luciferase reporter | inhibition, % at 5 µM | 290,000 compounds, 0.23% hits | AID 1700, 2009;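 active = inhibition above a per-plate limit of that plate's mean compound inhibition plus 3 SD, cut at about 60% in these data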;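 note: 0% = DMSO wells and 100% = LY294002 at 200 µM; higher means less KLF5 promoter-driven luciferase light; inactives centre near -14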
AI-2 QS mod – Vibrio harveyi AI-2 quorum sensing modulators, primary screen, JMH597 strain, luminescence/OD600 ratio; activity change, % at 7.5 µM; Vibrio harveyi JMH597 AI-2 luminescence/OD600 ratio, 9 h; active compounds read low; strain lacks LuxN and CqsS sensors; 0 = neutral-control median; AID 2094, 2009; 300,000 compounds, 0.4% hits; in the data active = activity change below about -75%, passing the limit was not always enough;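 note: luminescence divided by OD600 gain over 9 h not by final OD600 alone; inactives centre near 13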
SKKanGAS inh – S. pyogenes SKKanGAS growth inhibitors in kanamycin, primary screen, streptokinase expression inhibitor project, SKKanGAS strain, BacTiter-Glo luminescence; inhibition, % at 7.5 µM; 6 h; 300,000 compounds, 1.3% hits; AID 1662, 2009;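 active = mean replicate score, as percent of positive control median, at least 50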;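 note: strain carries kanamycin resistance gene driven by streptokinase promoter and grows in 40 µg/ml kanamycin; loss of luminescence reflects streptokinase promoter inhibition or plain growth inhibition; 0% = median of DMSO wells and 100% = positive control at its reference dose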
An asterisk follows results filed as active; x = no result given; & = joins results of further samples. Only part of the results is shown; the hit share may differ from the screen's.

1	CCOC(=O)C1=C[C@]2(CC)CCCN3CCc4c(n1c1ccccc41)[C@@H]32
2	CN(C)c1ccc(N=Nc2nc3ccccc3n2C)cc1
3	c1cnc2c(c1)ccc1cccnc12
4	O=C(O)CC(O)C(=O)O (configuration not stated)
5	COC(=O)Nc1nc2ccc(Sc3ccccc3)cc2[nH]1
6	COC(=O)c1c(-c2ccccc2)csc1N
entry no.,1,2,3,4,5,6
Platelet DG rel,15,182*,13&-1,2,-2,-1
HSP90 inh,2,21*,1&1,1,2,2
KLF5 inh,-4,45,47&36,-45,50,-13
AI-2 QS mod,15,40,3&15,5,4,-2
SKKanGAS inh,-2,13,24&0,-1,-2,-11

7	NCCCC(=O)O
8	CN[C@H]1CC[C@@H](c2ccc(Cl)c(Cl)c2)c2ccccc21
9	CN(C)CCOC(c1ccccc1)c1ccccc1
10	Nc1nonc1-n1nnc(C(=O)N/N=C/c2ccncc2)c1-c1ccccc1
11	Cc1ccccc1-c1nnc(SCc2ccccc2)o1
12	Cc1ccc(-c2nn(C(C)(C)C)c3ncnc(N)c23)cc1
entry no.,7,8,9,10,11,12
Platelet DG rel,13,-3&7,0,7,2,x
HSP90 inh,1,-3&-3,4&4,0,1,2
KLF5 inh,-21,-39&-29,-23&-26,7,-111,-5
AI-2 QS mod,12,44&9,21,0,-96*,x
SKKanGAS inh,-3,5&4,-3,3,30,x

13	CC1=C(C)C(=O)C(CCCCC#CCCCC#CCO)=C(C)C1=O
14	Cc1ccc2c(c1)c1c3n2CCNC3CCC1 (configuration not stated)
15	CC(C)(C)c1cc(NC(=O)Nc2ccccc2)no1
16	CC(C)(C)NC(=O)[C@@H]1C[C@@H]2CCCC[C@@H]2CN1C[C@@H](O)[C@H](Cc1ccccc1)NC(=O)[C@H](CC(N)=O)NC(=O)c1ccc2ccccc2n1
17	O=C(O)C1CCN(S(=O)(=O)/C=C/c2ccccc2)CC1
18	Cc1c(OCC(F)(F)F)ccnc1CS(=O)c1nc2ccccc2[nH]1 (configuration not stated)
entry no.,13,14,15,16,17,18
Platelet DG rel,10,6,x,-2&7,-5,-4
HSP90 inh,5,-4,-1,-2,5,0&-4
KLF5 inh,-3,-18,-171,-4,-4,-5&-70
AI-2 QS mod,23,11,-42,19&9,48,24
SKKanGAS inh,8,-3,0,7&3,1,-8

Copied from above: entries 8–18
8	CN[C@H]1CC[C@@H](c2ccc(Cl)c(Cl)c2)c2ccccc21
9	CN(C)CCOC(c1ccccc1)c1ccccc1
10	Nc1nonc1-n1nnc(C(=O)N/N=C/c2ccncc2)c1-c1ccccc1
11	Cc1ccccc1-c1nnc(SCc2ccccc2)o1
12	Cc1ccc(-c2nn(C(C)(C)C)c3ncnc(N)c23)cc1
13	CC1=C(C)C(=O)C(CCCCC#CCCCC#CCO)=C(C)C1=O
14	Cc1ccc2c(c1)c1c3n2CCNC3CCC1 (configuration not stated)
15	CC(C)(C)c1cc(NC(=O)Nc2ccccc2)no1
entry no.,8,9,10,11,12,13,14,15
Platelet DG rel,-3&7,0,7,2,x,10,6,x
HSP90 inh,-3&-3,4&4,0,1,2,5,-4,-1
KLF5 inh,-39&-29,-23&-26,7,-111,-5,-3,-18,-171
AI-2 QS mod,44&9,21,0,-96*,x,23,11,-42
SKKanGAS inh,5&4,-3,3,30,x,8,-3,0

16	CC(C)(C)NC(=O)[C@@H]1C[C@@H]2CCCC[C@@H]2CN1C[C@@H](O)[C@H](Cc1ccccc1)NC(=O)[C@H](CC(N)=O)NC(=O)c1ccc2ccccc2n1
17	O=C(O)C1CCN(S(=O)(=O)/C=C/c2ccccc2)CC1
18	Cc1c(OCC(F)(F)F)ccnc1CS(=O)c1nc2ccccc2[nH]1 (configuration not stated)
entry no.,16,17,18
Platelet DG rel,-2&7,-5,-4
HSP90 inh,-2,5,0&-4
KLF5 inh,-4,-4,-5&-70
AI-2 QS mod,19&9,48,24
SKKanGAS inh,7&3,1,-8

Next entries
19	Nc1nc(OCC2CCCCC2)c2[nH]cnc2n1
20	C[C@]12CCC(=O)C=C1CC[C@@H]1[C@@H]2[C@@H](O)C[C@@]2(C)[C@H]1CC[C@]2(O)C(=O)COC(=O)CCC(=O)O
21	CCCC(CCC)C(=O)O
22	NC1=NC(=O)/C(=C/c2ccc(-c3ccc(S(N)(=O)=O)cc3)o2)S1
23	CC(C)(C(=O)O)c1ccc([C@H](O)CCCN2CCC(C(O)(c3ccccc3)c3ccccc3)CC2)cc1
24	CC(=O)O[C@H]1C(=O)[C@@]2(C)C([C@H](OC(=O)c3ccccc3)[C@]3(O)C[C@H](OC(=O)[C@H](O)[C@@H](NC(=O)c4ccccc4)c4ccccc4)C(C)=C1C3(C)C)[C@]1(OC(C)=O)CO[C@@H]1C[C@H]2O (some centres not stated)
entry no.,19,20,21,22,23,24
Platelet DG rel,-1,11&6,-2,2,3,-8
HSP90 inh,-7,5&0,x,1,-1,-1
KLF5 inh,-6,-9&9,x,-15,-7,56
AI-2 QS mod,13,11&10,10,3,9,-11
SKKanGAS inh,-3,-3&6,-4,1,-2,9

25	C#C[C@]1(O)CC[C@H]2[C@@H]3CCC4=CC(=O)CC[C@@H]4[C@H]3CC[C@@]21C
26	COC(=O)Cc1c[nH]c2ccc(OCC(O)CNC(C)C)cc12 (configuration not stated)
27	COc1ccc(Cn2cc(C(=O)O)c(=O)c3ccccc32)cc1
28	COc1cc(C(=S)N2CCOCC2)ccc1O
29	CC/C(=C/c1sc2ccc(C)cc2[n+]1CCO)SC
entry no.,25,26,27,28,29
Platelet DG rel,14,0,5,2,8
HSP90 inh,x,8,4,2,0
KLF5 inh,x,9,-6,-3,8
AI-2 QS mod,29,36,3,34,10
SKKanGAS inh,-5,-5,2,-1,3
